Source: PubChem BioAssay
MARV entry inh – qHTS for inhibitors of binding or entry into cells for Marburg Virus | AID 540276, 2011 | 300,000 tested, 1.8% active | Marburg virus pseudotyped entry inhibition, cell reporter; control for the full effect not named in the record; about a third of the inactives were read at about 46 µM | Potency, µM (series often up to 37.8 µM), for the others: at the highest dose activity change, negative = inhibition, hits mostly inhibitors; active = well fitted inhibition curve with a large enough effect; inconclusive = small, poorly fitted or top-dose-only effect, or effect the other way; inactive = flat fitted curve, though single readings scatter; tested in HEK293 cells; about a fifth of its hits are not listed in these tables; note: % is set by controls: 0 for no effect and ±100 for the full control effect; luciferase read-out
Cruzain inh Det – qHTS Assay for Promiscuous and Specific Inhibitors of Cruzain (with detergent). Cruzipain (Trypanosoma cruzi), P25779. AID 1478, 2009. Potency, µM, without a hit: max response, negative = inhibition, most hits filed as inhibitors. 200,000 tested, 0.43% active. purified cruzain, Z-FR-AMC fluorescence, 0.01% Triton;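 note: plate controls were neutral wells for no effect and buffer without enzyme for full effect; nearly all actives have a fitted effect of over 40% in size; top concentration of the series not given in the record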
Target sequence (P25779 123-467 limits assumed): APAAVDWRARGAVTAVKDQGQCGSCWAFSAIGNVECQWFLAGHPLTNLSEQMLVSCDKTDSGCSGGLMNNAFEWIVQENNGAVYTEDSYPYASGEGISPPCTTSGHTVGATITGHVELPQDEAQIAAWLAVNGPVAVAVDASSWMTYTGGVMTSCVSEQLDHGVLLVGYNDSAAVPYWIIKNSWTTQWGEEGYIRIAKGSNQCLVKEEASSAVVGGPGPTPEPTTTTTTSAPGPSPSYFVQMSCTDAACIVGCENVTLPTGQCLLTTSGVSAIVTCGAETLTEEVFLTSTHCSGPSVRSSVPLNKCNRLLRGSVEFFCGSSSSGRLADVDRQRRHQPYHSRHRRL
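Read-out: AMC fluorescence (360 nm excitation, 450 nm emission), four reads over 2 min, first-to-third difference used. Conditions: cruzain 1.5 nM, Z-FR-AMC 2 uM, pH 5.5 acetate, 5 mM DTT, 0.01% Triton X-100.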
2A StopGo – High Throughput Screening for Foot and Mouth Disease Virus Antivirals; Potency, µM (highest dose often 57.9 µM), for inactives: at the top dose signal change, negative = less light; AID 1159524, 2015; human cells with a luciferase reporter of 2A StopGo recoding; control for the full effect not named in the record; 410,000 tested, 1.2% active; active = well fitted falling curve with a large enough effect; inconclusive = small, poorly fitted or top-dose-only effect; inactive = no such curve, though single readings can be large or run the other way; tested in HEK293T cells; note: % is set by controls: 0 for no effect and ±100 for the full control effect; nearly all actives have a fitted effect of over 45% in size; luciferase light after 4 h
NS1 function inh – qHTS Assay for Inhibitors of Influenza NS1 Protein Function; 270,000 tested, 0.4% active; Potency, µM (series often up to 46.1 µM), for inactives: at the top dose activity, positive = more growth; AID 2326, 2010; S. cerevisiae slowed by influenza A NS1, growth recovery by OD600; active means well fitted rising curve with a large enough effect; inconclusive means small, poorly fitted or top-dose-only effect; inactive means no such curve, though single readings can be large or run the other way; note: nearly all actives have a fitted effect of over 50% in size
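Growth recovery, yeast-based: influenza A NS1 expressed in S. cerevisiae causes slow growth, and suppressors are detected by OD600. The parent strain without NS1 is used as positive control.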
SARS PLP yeast – qHTS of Yeast-based Assay for SARS-CoV PLP; 330,000 tested, 0.19% active; S. cerevisiae expressing SARS-CoV PLpro, growth rescue; control for the full effect not named in the record; Potency, µM (titrated, usually from 32.9 µM), without a hit: at the top dose activity, positive = growth rescue; active means well fitted rising curve with a large enough effect; inconclusive means small, poorly fitted or top-dose-only effect; inactive means no such curve, though single readings can be large or run the other way; note: 0% is about no effect; nearly all actives have a fitted effect of over 55% in size; growth read by luminescence after 48 h
Lassa entry inh – qHTS for Inhibitors of binding or entry into cells for Lassa Virus; Lassa virus pseudotype entry inhibition, cell reporter; control for the full effect not named in the record; Potency, µM (highest dose often 37.9 µM), for the others: at the top dose activity change, negative = inhibition, hits mostly inhibitors; 300,000 tested, 1.2% active; active means well fitted inhibition curve with a large enough effect; inconclusive means small, poorly fitted or top-dose-only effect, or effect the other way; inactive means flat fitted curve, though single readings scatter; tested in HEK293 cells; note: % is set by controls: 0 for no effect and ±100 for the full control effect; nearly all actives have a fitted effect of over 50% in size; luciferase read-out
RE007 growth inh – qHTS Assay for Inhibitors of the HIV-1 protein Vpr; 360,000 tested, 0.21% active; S. pombe RE007 Vpr strain, BacTiter-Glo ATP luminescence, 24 h; control for the full effect not named in the record; Potency, µM (top dose mostly 92.2 µM), for the others: at the highest dose activity change, negative = less growth; active = well fitted falling curve with a large enough effect; inconclusive = small, poorly fitted or top-dose-only effect; inactive = no such curve, though single readings can be large or run the other way;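 note: % is set by controls: 0 for no effect and ±100 for the full control effect; nearly all actives have a fitted effect of over 50% in size; the assay follows cell death caused by Vpr and the record does not say whether a fall means rescue or toxicity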
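Fission yeast RE007 carrying one integrated HIV-1 vpr copy, seeded at OD 0.01 in PMG+AL medium with 23 nL pinned compound. Grown 24 h at 30 degrees; viability read by BacTiter-Glo luminescence after 5 min.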
Cruzain noTriton – qHTS Assay for Promiscuous and Specific Inhibitors of Cruzain (without detergent); purified cruzain, Z-FR-AMC fluorescence, no detergent; Cruzipain (Trypanosoma cruzi), P25779; 200,000 tested, 2.3% active; Potency, µM, for inactives: max response, negative = inhibition, hits mostly inhibitors;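 note: plate controls were enzyme without inhibitor for no effect and buffer without enzyme for full effect; nearly all actives have a fitted effect of over 40% in size; top concentration of the series not given in the record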
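Detergent-free condition (0.00005% Triton X-100) in acetate buffer pH 5.5 with DTT. 1.5 nM enzyme and compound were pre-mixed 15 min, then 2 uM Z-FR-AMC substrate added; reaction progress from fluorescence change between first and third reads (60 s).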
An asterisk follows results filed as active; ? = inconclusive; . = not tested or not shown; [ ] = remark or other dose. Unless noted, calls come from the whole dose curve; as a rule, active = well fitted curve in the direction sought with a large enough effect; inconclusive = small, poorly fitted or top-dose-only effect, or another doubt; inactive = no such curve, though single readings can be large; an effect the other way counts as inactive or inconclusive. Potency is the fitted concentration of half-maximal effect. Rows were taken by chance. About 4.6% of those tested had a hit in this group.

Every second line gives: MARV entry inh	Cruzain inh Det	2A StopGo	NS1 function inh	SARS PLP yeast	Lassa entry inh	RE007 growth inh	Cruzain noTriton
Cc1ccccc1-c1nc(CN2CCC(C(=O)NCCC3=CCCCC3)CC2)c(C)o1
  ?	2.6%	-11%	-3%	-3%	?	-1%[3.69 µM]	2%
CCOc1ccccc1C(=O)N1CC(=O)Nc2ccc(C)cc2C1c1ccccc1 (stereo not given)
  -1%[46.1 µM]	0.1%	-5%	.	.	-1%[46.1 µM]	.	-2%
COc1ccc(NC(=O)CN2C(=O)N(C)Cc3ccccc32)c(C)c1
  4%[46.1 µM]	.	6%	.	6%	?	11%	.
CC(=O)NS(=O)(=O)c1ccc(NC(=S)NC(=O)C(C)(C)C)cc1
  1%	2.4%	9%	16%	0%	-3%	3%	-14%
CSc1ccccc1NC(=O)COC(=O)CCc1ccccc1
  6%[46.1 µM]	.	5%	-15%	-19%	5%	1%	.
COc1ccc(CC(=O)Nc2cc(S(C)(=O)=O)ccc2Cl)cc1S(=O)(=O)N1CCOCC1
  24%	.	-25%	.	.	2%	-11%	.
Cc1nc2sc(C(c3cccs3)N3CC(C)CC(C)C3)c(O)n2n1 (stereo not given)
  -18%	5.3%	38%[activator]	-40%	2%	3%	0%	-2%
CCCS(=O)(=O)N1CCN(C(=O)c2ccco2)CC1
  13%	3.1%	-20%	-6%	7%	11%	0%	7%
CC(=O)OC(C)(C)/C=C/C(=O)C(C)(O)C1C(O)CC2(C)C3CC=C4C(CC(O)C(=O)C4(C)C)C3(C)C(=O)CC12C (stereo not given)
  ?	.	32µM*	.	.	0.13µM*	-2%	.
CC(=O)C1=C(O)C(=O)N(CCC(=O)O)C1c1ccc(Cl)cc1Cl (stereo not given)
  1%	-4.8%	.	0%	2%	1%	8%	-21%
OCCC1CN(Cc2cccc(O)c2)CCN1CCc1ccccc1 (stereo not given)
  5%	.	-16%	4%	-1%	3%	-4%	.
C/C=C/c1ccc(Oc2nnnn2-c2ccc(C(N)=O)cc2)c(OC)c1
  8%	-1.6%	?	-2%	2%	2%	-6%	-7%
O=C(CSc1nc(-c2ccccc2)cs1)NC(=O)NCc1ccco1
  -14%	-12%	.	11%	-16%	-13%	8%	-6%
O=C(O)/C=C\C(=O)Nc1ccc(OC(F)F)cc1
  .	.	-7%	0%	-2%	.	11%	.
O=S(=O)(Cc1ccccc1)NCC1CCCN(Cc2cccc3nonc23)C1 (stereo not given)
  -8%[46.1 µM]	.	-2%	2%	-1%	19%	11%	.
CC1CCCCN1CCNC(=O)CN1C(=O)CSc2ccc(S(=O)(=O)N3CCCCC3)cc21 (stereo not given)
  ?	.	0%	1%	-1%	2%[46.1 µM]	7%	.
CCn1cc(C(=O)Nc2cccc(NC(C)=O)c2)c2cc(OC)c(OC)cc2c1=O
  0%	5.0%	-27%	-33%	2%	0%	12%	23%
COc1cc(C(=O)NNC(=O)c2cc(=O)[nH]c3ccccc23)cc(OC)c1OC
  ?	.	-19%	.	1%	7%	1%	.
COc1ccccc1N1CCN(C2CCCN(C(=O)c3ccoc3)C2)CC1 (stereo not given)
  -19%[46.1 µM]	.	1%	3%	0%	-1%[46.1 µM]	3%	.
CCc1ccc(-n2nnnc2SCC(=O)Nc2ccc(NC(C)=O)cc2)cc1
  .	.	-11%	-60%	0%	.	-14%	.
CCN(CC)CCNC(=O)c1ccc(NC(=O)Cc2cccc3ccccc23)cc1
  11µM*	.	2%	6%	-7%	-12%[46.1 µM]	-8%	.
Cc1cccc(Oc2cc(NC(=O)Cn3cnc([N+](=O)[O-])n3)cc([N+](=O)[O-])c2)c1
  ?	-5.6%	-10%	-9%	4%	?	13%	9%
CCOc1ccc(N(CC(=O)Nc2ccccc2OC)S(=O)(=O)c2ccccc2)cc1
  .	.	2%	28%	-9%	.	3%	.
COc1ccc(CC(=O)N2CCN(c3cccc(C)c3C)CC2)cc1
  .	.	-2%	-13%	-4%	.	6%	.
COc1ccccc1CNC(=O)COC(=O)C1CCN(S(=O)(=O)c2ccccc2)CC1
  2%	.	-18%	.	2%	-1%	13%	.
Cc1ccc(C(=O)NC(=S)Nc2ccc(N3CCOCC3)cc2)c(C)c1
  ?	.	-15%	11%	1%	?	7%	.
O=C(CCN1C(=O)c2ccncc2C1=O)NCc1ccc(Cl)cc1
  22%	0.7%	7%	-6%	-3%	-4%	9%	-3%
CC1CCC(NC(=O)c2ccc(CS(=O)(=O)Cc3ccccc3F)o2)CC1 (stereo not given)
  ?	-2.8%	-16%	-4%	0%	-13%	1%	0%
COc1ccc(S(=O)(=O)N/N=C\c2ccc([N+](=O)[O-])o2)c(OC)c1
  -16%	.	-10%	-6%	0%	-14%	?	.
COc1ccc(-c2nc(-n3c(C)c(C(C)=O)c(C(C)=O)c3C)sc2C)cc1
  -16%	0.6%	?	-41%	-1%	-12%	55%	16%
O=C(c1ccc(Cl)cc1)N1CCn2c1nc1ccccc12
  ?	.	33%[activator]	.	0%	17%[46.1 µM]	-2%	.
COc1cc(-c2noc(C3CCCN(C(=O)c4ccccc4)C3)n2)cc(OC)c1OC (stereo not given)
  .	.	1%	-16%	1%	.	-17%	.
Cc1cc(C)n(CCN(C)C(=O)CCc2nnc(CCC3CCCCC3)o2)n1
  .	.	70%[activator]	1%	1%	.	16%	.
Cc1ccc2[nH]c(=O)c(CN(Cc3ccccc3)C(=S)NCCCN(C)C)cc2c1
  ?	.	-25%	-35%	1%	-27%	2%	.
CC(=O)c1c(C)oc2ccc(N(C(C)=O)S(=O)(=O)c3ccc(Br)cc3)cc12
  ?	.	?	.	.	-13%	-12%	.
Nc1n[nH]c(-c2cccc([N+](=O)[O-])c2)n1
  24%	-1.5%	-21%	26%	-3%	1%	-5%	8%
Cc1ccc(NC2CCCN(C(=O)c3cccc4nccnc34)C2)cc1C (stereo not given)
  5%	.	-8%	7%	17%	?	3%	.
Cn1c(C(=O)N2CCC(C(=O)NCCc3ccc(S(N)(=O)=O)cc3)CC2)cc2sccc21
  6%[46.1 µM]	-3.6%	-1%	.	.	.	.	8%
Nc1ccc(C(=O)OC2CCOC2=O)cc1[N+](=O)[O-] (stereo not given)
  -62%	-4.6%	-17%	-3%	2%	8%	1%	-3%
c1ccc(-c2nnn(C34CC5CC(CC(C5)C3)C4)n2)cc1
  16%	0.9%	36%[activator]	-43%	-10%	5%	8%	6%
Cc1cc2c(=O)n(CC(=O)NCC(=O)Nc3ccc(C(C)C)cc3)cnc2s1
  .	.	-9%	10%	5%	.	5%	.
CC(=O)c1cccc(NC(=O)c2nc3ccccc3nc2N2CCCCC2)c1
  .	-4.1%	-1%	.	.	-10%[46.1 µM]	.	14%
COc1ccc(NC(=O)CSc2nnc(-c3ccccn3)n2-c2ccccc2)cc1OC
  -3%	2.9%	-24%	7%	3%	-5%	-7%	-1%
COC(=O)C1C(=O)C(C(=O)/C=C/c2ccccc2)C(=O)CC1(C)C (stereo not given)
  -16%[46.1 µM]	.	?	.	-2%	3%[46.1 µM]	6%	.
O=C(c1c(F)cccc1F)N1CCCC(c2nc(-c3cccs3)no2)C1 (stereo not given)
  ?	.	10%	2%	0%	?	0%	.
CCn1cnc2cc(NC(=O)c3ccco3)ccc21
  -11%	-1.3%	-4%	7%	?	-15%	-17%	5%
COc1ccccc1NC(=O)c1ccccc1Nc1ccccc1
  -6%	.	-16%	6%	-7%	-15%	?	.
O=C(NCCCN1CCCC(O)C1)c1cc(COc2ccc(F)cc2F)on1 (stereo not given)
  -3%	.	-2%	2%	0%	0%	1%	.
Cn1c(=N)n(CC(=O)c2ccc(F)cc2)c2ccccc21
  ?	.	-24%	-5%	0%	?	-27%	.
CC12CC3CC(C)(C1)CC(C(=O)NC(=S)N1CCOCC1)(C3)C2
  -26%	2.5%	.	-63%	?	-24%	-2%	0%

An excerpt of these results, tab-delimited:
SMILES	MARV entry inh	Cruzain inh Det	2A StopGo	NS1 function inh	SARS PLP yeast	Lassa entry inh	RE007 growth inh	Cruzain noTriton
CC(=O)c1cccc(NC(=O)c2nc3ccccc3nc2N2CCCCC2)c1	.	-4.1%	-1%	.	.	-10%[46.1 µM]	.	14%
COc1ccc(NC(=O)CSc2nnc(-c3ccccn3)n2-c2ccccc2)cc1OC	-3%	2.9%	-24%	7%	3%	-5%	-7%	-1%
COC(=O)C1C(=O)C(C(=O)/C=C/c2ccccc2)C(=O)CC1(C)C (stereo not given)	-16%[46.1 µM]	.	?	.	-2%	3%[46.1 µM]	6%	.
O=C(c1c(F)cccc1F)N1CCCC(c2nc(-c3cccs3)no2)C1 (stereo not given)	?	.	10%	2%	0%	?	0%	.
CCn1cnc2cc(NC(=O)c3ccco3)ccc21	-11%	-1.3%	-4%	7%	?	-15%	-17%	5%

Next part
Every second line gives: MARV entry inh	Cruzain inh Det	2A StopGo	NS1 function inh	SARS PLP yeast	Lassa entry inh	RE007 growth inh	Cruzain noTriton
O=C(CSc1ccccc1F)NCCCN1CCCC1=O
  23%	.	22%	.	?	?	-20%	.
CS(=O)(=O)c1ccc2nc(NC(=O)c3cc(-c4ccccc4)nn3-c3ccccc3)sc2c1
  6%	-5.5%	-10%	9%	-7%	18%	4%	?
COc1cc(NC(=O)Cc2cccs2)ccc1-n1cnnn1
  -1%	-4.0%	2%	2%	-1%	-1%	17%	-8%
Cc1c(NC(=O)c2ccc(N3CCC(C)CC3)c([N+](=O)[O-])c2)cccc1-c1nc2ccccc2o1
  -1%[46.1 µM]	1.5%	-6%	.	.	3%[46.1 µM]	.	-11%
O=C(Nc1nnc(SCc2ccccc2F)s1)C1=COCCO1
  ?	.	0%	-21%	-6%	24%[46.1 µM]	2%	.
